# High-throughput results: PubChem, Johns Hopkins Ion Channel Center
# KCNQ2 pot = enhances the rat KCNQ2 potassium channel; CHO-K1 KCNQ2, FluxOR thallium flux fluorescence; active compounds read high; B-score at 10 µM; 310,000 compounds, 0.54% hits;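 active = fluorescence ratio B-score at least 3 SD of library B-scores, with initial fluorescence B-score within 3 SD, cut at about 5.3 in these data; same plate scores as AID 2156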;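 note: B-score of peak minus minimum over baseline fluorescence ratio after K+ and Tl+ stimulus; positive B-score means potentiation of KCNQ2 with more thallium influx and brighter signal; only the inactives scoring about 0 or higher are listed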
# Target sequence (O88943 whole entry, looked up): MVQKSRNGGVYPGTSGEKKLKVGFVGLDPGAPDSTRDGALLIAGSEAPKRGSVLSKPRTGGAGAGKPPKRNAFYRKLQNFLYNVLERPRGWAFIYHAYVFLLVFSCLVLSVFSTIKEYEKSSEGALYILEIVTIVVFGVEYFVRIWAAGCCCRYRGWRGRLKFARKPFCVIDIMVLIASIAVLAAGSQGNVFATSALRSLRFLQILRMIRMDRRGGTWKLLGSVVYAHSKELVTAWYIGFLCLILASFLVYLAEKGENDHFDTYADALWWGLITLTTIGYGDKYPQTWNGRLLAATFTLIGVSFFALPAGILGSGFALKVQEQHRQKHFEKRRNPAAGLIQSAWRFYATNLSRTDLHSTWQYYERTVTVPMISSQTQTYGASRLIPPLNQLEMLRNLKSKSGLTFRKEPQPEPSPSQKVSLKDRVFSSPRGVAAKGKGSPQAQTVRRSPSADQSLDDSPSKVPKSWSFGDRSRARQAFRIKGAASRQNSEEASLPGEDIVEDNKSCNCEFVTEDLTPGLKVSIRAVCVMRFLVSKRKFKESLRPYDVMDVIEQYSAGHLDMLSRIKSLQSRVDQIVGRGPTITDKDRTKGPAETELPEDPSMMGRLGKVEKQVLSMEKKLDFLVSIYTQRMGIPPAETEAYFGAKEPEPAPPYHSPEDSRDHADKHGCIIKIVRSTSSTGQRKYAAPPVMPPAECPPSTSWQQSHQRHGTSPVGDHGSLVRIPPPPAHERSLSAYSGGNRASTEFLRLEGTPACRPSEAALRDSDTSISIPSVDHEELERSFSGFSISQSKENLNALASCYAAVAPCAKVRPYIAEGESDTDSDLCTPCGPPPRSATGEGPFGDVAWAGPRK
# KCNQ2 pot baseline = also measured in KCNQ2 pot; calls as there; B-score; compound at 10 µM; measured here: initial fluorescence intensity artifact check;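 brightness before thallium and not channel activity; 0 = typical well and far values either way flag optical interference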
# Numbers without * were called inactive.
# Values in the order: KCNQ2 pot	KCNQ2 pot baseline
COc1ccccc1NC(=O)Nc1ccnn1Cc1cccs1
→ 1.36	-1.02
Cc1ccc(C2CC(c3ccccc3Cl)n3nc(N)nc3N2)cc1 (stereo not given)
→ 0.02	-1.78
CCN(CC(=O)Nc1ccc(NC(C)=O)cc1)C(=O)c1ccccc1CCc1ccccc1
→ 2.09	-1.02
O=C(c1ccco1)N(Cc1ccco1)Cc1cc2ccccc2[nH]c1=O
→ 2.97	-0.04
CCOc1ccc(CCNC(=O)c2cccs2)cc1OCC
→ 0.89	1.45
CCN1CCN(C(=O)c2ccc(Cn3c(=O)[nH]c4cc(OC)c(OC)cc4c3=O)cc2)CC1
→ 1.35	1.1
CC(C)[C@@H](C(=O)N1CCN(C(=O)OC(C)(C)C)CC1)n1cc(CCO)nn1
→ 0.02	-1.2
Cc1cccn2c(=O)c3cc(C(N)=S)c(=N)n(CCCOC(C)C)c3nc12
→ 0.01	0.67
Cc1cc(C(=O)N/N=C/c2c(C)nn(-c3ccccc3)c2Cl)n[nH]1
→ 0.67	1.1
COc1ccc(-c2oc3ccc(N4CCOCC4)cc3c2C#CCO)cc1
→ 1.21	0.01
N#Cc1c(C(F)(F)F)cc(-c2cccs2)nc1SC(C(=O)O)c1ccccc1 (stereo not given)
→ 2.02	-0.2
Cn1cccc1Cc1nnc(SCC(=O)N2CCCCCC2)n1-c1ccc(F)cc1
→ 3.11	0.05
Cc1ccccc1NC(=O)c1ccc(Cl)c(NC(=O)c2ccncc2)c1
→ 0.11	1.08
CC(C)CN1CCN(Cc2cccc3nccnc23)CC1CCO (stereo not given)
→ 1.78	-0.01
CC(=O)Nc1sc2c(c1C#N)CC(C)(C)NC2(C)C
→ 0.86	2.08
CCCc1cc(=O)[nH]c(SCC(=O)N(CC(C)C)C2CCS(=O)(=O)C2)n1 (stereo not given)
→ 0.91	0.37
CCn1c(=O)c(-[n+]2ccccc2)c(O)c2ccccc21
→ 2.28	0.46
Cc1ccc(-n2nnc(-c3cccnc3Cl)n2)cc1
→ 1.03	0.34
CCc1ccccc1NC(=O)C1CCN(C(=O)c2cccs2)CC1
→ 0.16	2.04
Cc1ccc(NS(=O)(=O)c2ccc(NS(=O)(=O)c3cccs3)cc2)cc1
→ 0.08	0

# 6 successive records from above, for reference:
# Values in the order: KCNQ2 pot	KCNQ2 pot baseline
COc1ccccc1NC(=O)Nc1ccnn1Cc1cccs1
→ 1.36	-1.02
Cc1ccc(C2CC(c3ccccc3Cl)n3nc(N)nc3N2)cc1 (stereo not given)
→ 0.02	-1.78
CCN(CC(=O)Nc1ccc(NC(C)=O)cc1)C(=O)c1ccccc1CCc1ccccc1
→ 2.09	-1.02
O=C(c1ccco1)N(Cc1ccco1)Cc1cc2ccccc2[nH]c1=O
→ 2.97	-0.04
CCOc1ccc(CCNC(=O)c2cccs2)cc1OCC
→ 0.89	1.45
CCN1CCN(C(=O)c2ccc(Cn3c(=O)[nH]c4cc(OC)c(OC)cc4c3=O)cc2)CC1
→ 1.35	1.1

# (continued)
# Values in the order: KCNQ2 pot	KCNQ2 pot baseline
CC(C)CN(C(=O)COC(=O)c1ccc(-c2ccccc2)cc1)C1CCS(=O)(=O)C1 (stereo not given)
→ 0.62	-0.71
Cc1ccc(Oc2ncccc2C(=O)NCC(=O)O)cc1
→ 2.12	1.09
O=C(CSc1nc2ccccc2[nH]1)Nc1ccc(F)c(F)c1
→ 3.37	-0.16
COC(=O)c1c(NC(=O)C2CCCCC2)sc2c1CCN(C(C)C)C2
→ 2.14	-0.04
O=C(Cc1ccccc1)Nc1ccc(NC(=O)c2ccco2)nc1
→ 0.33	-1.22
CCc1sc(C(=O)NC(C)C2CCCO2)cc1Br (stereo not given)
→ 0.25	-0.04
O=C(CN1C(=O)NC2NC(=O)NC21)NN=C1CCCC1 (stereo not given)
→ 1.29	0.64
O=C(O)c1ccc(OC(F)(F)C(F)C(F)(F)F)cc1 (stereo not given)
→ 2.88	0.51
CCCn1nc(C(=O)Nc2nc3ccccc3[nH]2)c2ccccc2c1=O
→ 1.65	-0.33
COC(=O)C1CN(C(=O)C(C)Oc2ccc(F)cc2)c2ccccc2O1 (stereo not given)
→ 0.17	-0.15
O=[N+]([O-])c1ccc(Sc2nnnn2-c2ccccc2)c(Cl)c1
→ 0.2	0.79
CCCOC(=O)c1ccc2c(c1)C(=O)N(c1ccccc1)C2=O
→ 1.44	-0.29
CCCn1nc2cc(C(=O)NCc3ccc(C)cc3)ccc2c1OCC
→ 0.03	-0.91
O=C(CSc1nnc(CNC(=O)c2ccccc2F)o1)Nc1ccc2c(c1)OCCO2
→ 0.41	0.14
CCCc1cc(N2CCCC(C(=O)NCC)C2)n2ncnc2n1 (stereo not given)
→ 1.15	3.4
Cc1cc(Nc2ccc(F)c(Cl)c2)n2nc(C)nc2n1
→ 0.9	0.55
CN(NC(N)=O)c1ncc(C(F)(F)F)cc1Cl
→ 0.97	0.33
COc1cccc(CNC(=O)C2CCN(S(=O)(=O)N3CCCCC3)CC2)c1
→ 2.04	-0.25
CC(C)CC1(C)NC(=O)N(CCN2C(=O)c3ccccc3C2=O)C1=O (stereo not given)
→ 0.37	-1.7
O=C(NCC1CCCO1)c1ccc2c3n(nc2c1)-c1ccccc1CO3 (stereo not given)
→ 0.51	0.75
Cc1cccn2c(=O)c3cc(C(=O)N4CCOCC4)n(C)c3nc12
→ 1.75	-0.24
COc1ccc(OCc2cc(C(=O)NCC(C)(C)N3CCOCC3)no2)c(Cl)c1
→ 0.04	-0.81
CC1(C)Cc2c(sc3ncn(N)c(=N)c23)CO1
→ 0.48	2.05
COP1(=O)C=C[C@H](N(Cc2ccccc2)S(=O)(=O)c2ccccc2[N+](=O)[O-])[C@@H](C)O1 (stereo not given in full)
→ 0.47	0.08
CCOc1ccccc1NC(=O)c1cccc(NC(=O)C(C)C)c1
→ 0.56	0.47
Cc1nc(N)nc(N/N=C/c2ccccc2)n1
→ 0.68	0.32
Cc1cccc(-n2c(SCC(=O)N3CCCC3)nnc2-c2ccccn2)c1C
→ 0.92	-0.06
COc1ccc(C(=O)NC(=S)N2CCCCC2c2cccnc2)cc1OC (stereo not given)
→ 0.97	-1.25
Nc1nc(-c2ccc3c(c2)CCO3)cs1
→ 1.01	-0.27
CC(OC(=O)c1ccc(=O)n(Cc2ccccc2)n1)C(=O)Nc1cccc(Cl)c1 (stereo not given)
→ 0.85	0.58
COc1ccc(CC(=O)N2CCCc3ccccc32)cc1
→ 0.01	-0.19
O=C(Nc1ccc(NC(=O)c2ccco2)c(Cl)c1)c1ccccc1
→ 0.74	-1.55
CCc1ccccc1S(=O)(=O)Cc1ccc(C(=O)N2CCN(c3ccccc3OC)CC2)o1
→ 0.05	-0.01
Cc1cccc(NC(=O)c2cc3ccccc3c(=O)o2)n1
→ 0.03	-2.35
CCn1c(=NC(=O)c2ccc(S(=O)(=O)N(C)C)cc2)sc2cccc(OC)c21
→ 0.08	0.11
C=C(C)C(=O)Nc1cccnc1Oc1ccc(F)cc1
→ 0.6	2.61
Cc1ccc(S(=O)(=O)NC(CC(=O)O)c2ccc(F)cc2)cc1 (stereo not given)
→ 0.1	-0.15
O=C(CSc1n[nH]c(=O)n1Cc1ccccc1)Nc1ccc(F)c(F)c1F
→ 0.26	-2.46
CCc1ccc(OCC(=O)N/N=C(\C)c2ccccc2OC(F)F)cc1
→ 0.51	1.03
CCN(CC(=O)Nc1ccccc1C(F)(F)F)C(=O)CCc1nc2sc3c(c2c(=O)[nH]1)CCCC3
→ 0.84	1.1
COc1cc2[nH]c(=O)n(CCC(=O)NCc3cccnc3)c(=O)c2cc1OC
→ 0.81	0.85
CC(C)OCCCNC(=O)C1CC(=O)N(C2CCCCCCC2)C1 (stereo not given)
→ 0.58	0.77
COc1cccc(CN2C(=O)NC3(CCCCCC3)C2=O)c1
→ 0.9	0.29
Cc1ccc(-n2ncc(C(=O)NC3CC3)c2C2CCN(C(=O)OC(C)(C)C)CC2)cc1
→ 0.65	0.99
COc1ccc(NC(=O)c2nc(C)n(-c3ccc([N+](=O)[O-])cc3)n2)cc1
→ 2.49	0.04
O=C(NC(C(=O)c1ccccc1)N1CCOCC1)c1cccs1 (stereo not given)
→ 1.31	-0.3
C/C(=N/NC(=O)CNC(=O)c1cccnc1)c1ccco1
→ 0.25	0.83
CC(=O)c1ccc(OCC(O)CN2CCN(Cc3ccccc3)CC2)cc1 (stereo not given)
→ 0.16	-0.19
CCc1nc(CNC(=O)c2cc(OC)c(OC)c(OC)c2)no1
→ 0.75	-0.2
CCOC(=O)/C=C1\SCC(=O)N1CC(=O)NCCc1ccc(F)cc1
→ 1.26	-1.02

# Remaining list, next part.
# Values in the order: KCNQ2 pot	KCNQ2 pot baseline
Brc1ccccc1/C=N/Nc1ccccn1
→ 0.1	0.53
CCN(CC(=O)Nc1c(F)cccc1F)C(=O)CNC(=O)c1ccc(C)s1
→ 0.82	1.51
O=C(Nc1ccc(Cl)cc1C(=O)NCCN1CCOCC1)c1ccco1
→ 0.33	-0.18
CC(C)c1ccc(NC(=S)Nc2ccc3cn[nH]c3c2)cc1
→ 0.16	0.3
Cc1ccc(Cn2c(CCNc3nc(-c4ccc(C)cc4)cs3)nc3cc(C(=O)NCCCO)ccc32)cc1
→ 0.04	-0.3
CC(=O)c1ccc(NC(=O)Nc2ccncc2)cc1
→ 0.78	0.07
CCOC(=O)CCCNC(=O)CSc1nnc(-c2ccccc2)c(-c2ccccc2)n1
→ 1.06	-0.03
O=C(CCN1C(=O)COc2ccccc21)NCc1cccnc1
→ 1.17	3.61
CCOc1ccc(/C(O)=C2/C(=O)C(=O)N(CCCN3CCOCC3)C2c2ccc(F)cc2)cc1C (stereo not given)
→ 0.44	-0.18
Cc1cc(C)cc(NC(=O)CN2CCC(NC(=O)c3ccccc3F)CC2)c1
→ 1.03	-1.96
Cc1ccc(S(=O)(=O)N(CC2CO2)c2cccc([N+](=O)[O-])c2)cc1 (stereo not given)
→ 0.51	1.1
CSc1ccc(CCNC(=O)CSc2ccsc2[N+](=O)[O-])cc1
→ 0.11	0.51
CC(=O)N/C(=C\c1ccc(F)cc1)C(=O)OC(C)C
→ 1.03	-0.47
CC(C)C(=O)Nc1cc(-c2nc3ncccc3o2)ccc1Cl
→ 1.06	-0.95
CCOC(=O)CN1N=C(/C=C/c2ccc(C(C)C)cc2)CCC1=O
→ 0.3	-1.16
O=C(Nc1ccc(Cl)cc1)Nc1ccc(-c2cnco2)cc1
→ 0.8	-1.6
CCOc1ccc(OCC)c(S(=O)(=O)NCCCN2CCOCC2)c1
→ 0.29	-1.26
Cc1cc2c(ncn2Cc2ccccc2)c(NS(C)(=O)=O)c1C
→ 1.23	-0.3
CCOc1ncccc1C(=O)NNC(=O)c1cccc(S(=O)(=O)Nc2ccccc2OC)c1
→ 0.85	0
COc1ccsc1C(=O)N1CCN(Cc2ccc3c(c2)OCO3)CC1
→ 0.16	-0.15
Nc1ccc2c(c1)OC1(CCCCC1)O2
→ 0.38	-0.12
CCCOc1ccc(C(CC(=O)O)NC(=O)c2sc3ccccc3c2Cl)cc1 (stereo not given)
→ 0.21	0.7
FC(F)(F)c1ccc(Sc2n[nH]c(C(F)(F)F)n2)nc1
→ 0.66	0.6
C/C(=N/NC(=O)c1sc(NS(=O)(=O)c2ccccc2)nc1C)c1ccccc1
→ 0.14	-2.47
CN1CCN(C(=O)/C=C/c2cccc(Cl)c2)CC1
→ 0.07	-0.89
Cc1ccc(CNC(=O)c2ccc(Cl)cc2[N+](=O)[O-])cc1
→ 0.13	0.18
CC(=O)/C(C#N)=C1\NC(=O)C(Cc2ccc(C)c(Cl)c2)S1 (stereo not given)
→ 2.07	-0.62
COC(=O)c1sc(=S)n(-c2cc(F)ccc2F)c1N
→ 2.07	0.08
CN1CCC(Oc2ccccc2Sc2ccc(C(F)(F)F)cc2)CC1
→ 1.23	0.35
COc1ccc(-c2cc(-c3ccc(Br)cc3)nc3ncnn23)cc1OC
→ 1.36	0.11
COc1ccc2nc(N3CCCCC3)c(/C=C3\SC(=S)NC3=O)cc2c1
→ 11*	-0.26*
Cn1nc(C(=O)NCc2ccccc2)c2ccccc2c1=O
→ 0.55	-0.01
O=C(CCCCC(=O)NCCCc1ccccc1)NCCCc1ccccc1
→ 0.49	0.71
NC(=O)N/N=C/C=C/c1ccc(F)cc1
→ 0.52	0.63
CC(=O)c1ccc(S(=O)(=O)Nc2cc3c(cc2C(C)=O)OCO3)cc1
→ 1.06	-0.71
COc1cccc(C(O)c2nc3ccccc3n2C(C)C)c1OC (stereo not given)
→ 2.6	-1.47
Cc1ccc(S(=O)(=O)N(C)Cc2cc3cc(C)ccc3[nH]c2=O)cc1
→ 0.06	-0.57
Cc1cc(=O)oc2cc(NC(=O)c3cccc(Br)c3)ccc12
→ 0.37	-1.02
CN(C)S(=O)(=O)c1ccc(S(=O)(=O)N(Cc2ccco2)Cc2ccccc2Cl)cc1
→ 0.54	-0.18
CCOc1ccc(CN(C)C(=O)c2cccnc2SC)cc1OC
→ 1.73	-0.02
Cc1ccc(NC(=O)CCOc2ccccc2)c(C)c1
→ 6.05*	-0.6*
CSc1nc(-c2ccco2)cc(C(F)(F)F)c1C#N
→ 0.28	2.33
O=C(N/N=C/c1ccco1)C1CC1
→ 1.21	1.04
O=C(Nc1ccccc1C(F)(F)F)N1CCCC1c1cccnc1 (stereo not given)
→ 0.04	0.34
Cc1cc(C(=O)COC(=O)CNC(=O)c2ccco2)c(C)n1Cc1ccco1
→ 0.26	2.14
COCCOC(=O)c1c(C)oc2ccc(OC(=O)COc3c(F)c(F)c(F)c(F)c3F)cc12
→ 0.04	-0.39
COc1ccc(CNC2CCCCC2)cc1
→ 0.45	1.3
O=C(CSc1ccc2nnc(-c3ccccc3)n2n1)N1CCCCC1
→ 1.92	0.08
c1ccc(C[n+]2ccc3ccccc3c2)cc1
→ 1.81	1.29
Cc1nc(NCc2ccccc2)[nH]c(=O)c1CCC(C)C
→ 0.25	-2.42

# Not all compounds are listed; rates above refer to the full screens.
